# From PubChem
# HCMV UL50-53 inh: inhibitors of HCMV UL50-UL53 interaction, biochemical, HTRF. AID 1918969, 2023. actives 0.15% (n = 190,000). inhibition, % (concentration not given with the values). normalized percent inhibition;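 active means both replicates at 50% or more, plus weaker picks with an unusually low signal ratio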;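 further: stock transfer was 100 nL into about 20 µL; 0% = negative control wells and 100% = wells with untagged competitor protein; inactives centre near -12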
# GIV Gai3 FP: inhibitors of GIV peptide binding to Galpha-i3, primary screen, biochemical, fluorescence polarization, FITC-GIV GBA peptide, rat Galphai3; AID 1224905, 2016; 90 min; active compounds read low; scaled: aluminum fluoride 0%, vehicle 100%; Guanine nucleotide-binding protein G(i) subunit alpha-3 (Rattus norvegicus), P08753; actives 0.42% (n = 210,000); percent of control (FP), % (concentration not given with the values);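 active means replicate mean at 85% of control or lower, very high polarization wells dropped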;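 further: wells of about 15 µL received 100 nL stock; the first replicate is given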
# Target sequence (P08753 whole entry, looked up): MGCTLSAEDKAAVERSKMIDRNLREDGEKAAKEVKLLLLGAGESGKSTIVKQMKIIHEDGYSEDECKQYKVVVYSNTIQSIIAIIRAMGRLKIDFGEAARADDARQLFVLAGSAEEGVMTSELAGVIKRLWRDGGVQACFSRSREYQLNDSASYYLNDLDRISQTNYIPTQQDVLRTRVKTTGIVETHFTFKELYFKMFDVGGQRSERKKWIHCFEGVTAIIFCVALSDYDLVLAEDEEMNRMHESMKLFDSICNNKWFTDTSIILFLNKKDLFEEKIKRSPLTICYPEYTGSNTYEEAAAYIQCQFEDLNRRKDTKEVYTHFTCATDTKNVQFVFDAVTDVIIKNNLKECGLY
# Sa growth 42C: S. aureus growth inhibition at 42 and 30 °C, primary screen, LtaS inhibitor project, RN4220, two temperatures; relative growth, % (test concentration not listed); actives 0.53% (n = 170,000); AID 720641, 2013; OD600, 20 h, 42 °C; active compounds read low;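 active means growth at 42 °C up to 50% and 20 or more points under that at 30 °C, or under 10% at both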;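 further: 300 nL library stock went into each well; scaled to the means of positive and negative controls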
# Sa growth 42C second temp: also measured in Sa growth 42C; calls as there; relative growth, %; measured here: growth at 30 °C;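 optical density after 20 h as mean of two plates; 100% = untreated growth and lower means inhibition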
# Numbers without * were called inactive; nt = not tested or not shown; & = joins results of further samples.
SMILES,HCMV UL50-53 inh,GIV Gai3 FP,Sa growth 42C,Sa growth 42C second temp
S=c1[nH]nc(Cc2ccccc2)n1C1CCCCC1,-7,105,98,92
O=C(CSc1ccccc1)Nc1ccc2c(c1)OCO2,3,90,102,105
CC(C)CCn1nnnc1CN1CCN(C(=O)c2ccco2)CC1,-26,96,107,96
N#CC1=C(SCC(=O)Nc2ccc(F)cc2)NC(=O)C(C#N)C12CCCCC2 (stereo not given),nt,95,65,24
CCCN(CCC)CCCNC(=O)Cn1cnc2sc(C)c(S(=O)(=O)N3CCCCC3)c2c1=O,4,104,90,95
CC(=O)N1CCc2ccccc2C1,1,nt,91,92
CCc1ccc(-c2nn(CC(=O)Nc3ccccc3C)c3c2cnc2ccc(C)cc23)cc1,nt,98,69,96
Nc1ncc(Br)cc1S(=O)(=O)NCCc1ccccc1,nt,99,97,80
CC(=C\c1ccccc1)/C=C1/SC(=O)N(C(C)C)C1=O,-12,98,107,89
COc1ccc(CNC(=O)C2CCN(C(=O)c3nnc(C(=O)Nc4cccc(F)c4)s3)CC2)cc1,-11,105,nt,nt
CCOC(=O)c1c(C)c(-c2ccccc2)n(CC(=O)NCCc2ccc(C)cc2)c1C,-25,103,98,84
COc1ccc(NC(=O)C2CCN(C(=O)c3cccc(OC)c3)CC2)cc1,-8,102,89,89
CCOC(=O)c1c(NC(=O)c2cc(-c3cccc(Cl)c3)on2)sc(C)c1C,16,106,101,96
COc1ccc(CN(C)c2nn(C)c(=O)n(C)c2=O)cc1OC,-51,nt,120,89
O=C(NC1Cc2ccccc2C1)c1ccc2c(c1)OCCCO2,-9,93,95,84
Cc1nn(-c2ccc3nncn3n2)c2c1C(c1ccc(O)cc1)CC(=O)N2 (stereo not given),-37,100,nt,nt
CC(=O)Nc1ccc2c(c1)ncn2C1CCCCC1,-5,99,101,95
CCNC(=S)NCCc1ccc(Cl)cc1,0,nt,61,88
CCOc1ccc(-n2c(C)nc3cc(C(=O)NC4CC4)ccc32)cc1,5,108,62,64
O=C(COC(=O)/C=C/c1ccccc1)NC1CCS(=O)(=O)C1 (stereo not given),-49,nt,77,96

# Some of these compounds in order of the GIV Gai3 FP value, largest number first.
SMILES,GIV Gai3 FP,Sa growth 42C second temp
CCCN(CCC)CCCNC(=O)Cn1cnc2sc(C)c(S(=O)(=O)N3CCCCC3)c2c1=O,104,95
Cc1nn(-c2ccc3nncn3n2)c2c1C(c1ccc(O)cc1)CC(=O)N2 (stereo not given),100,nt
N#CC1=C(SCC(=O)Nc2ccc(F)cc2)NC(=O)C(C#N)C12CCCCC2 (stereo not given),95,24

# Four of the compounds above, with values under each structure.
# The line under a structure holds: HCMV UL50-53 inh	GIV Gai3 FP	Sa growth 42C	Sa growth 42C second temp
COc1ccc(CN(C)c2nn(C)c(=O)n(C)c2=O)cc1OC
 : -51	nt	120	89
O=C(NC1Cc2ccccc2C1)c1ccc2c(c1)OCCCO2
 : -9	93	95	84
Cc1nn(-c2ccc3nncn3n2)c2c1C(c1ccc(O)cc1)CC(=O)N2 (stereo not given)
 : -37	100	nt	nt
CC(=O)Nc1ccc2c(c1)ncn2C1CCCCC1
 : -5	99	101	95

# A run of entries from the list above:
SMILES,HCMV UL50-53 inh,GIV Gai3 FP,Sa growth 42C,Sa growth 42C second temp
COc1ccc(CN(C)c2nn(C)c(=O)n(C)c2=O)cc1OC,-51,nt,120,89
O=C(NC1Cc2ccccc2C1)c1ccc2c(c1)OCCCO2,-9,93,95,84
Cc1nn(-c2ccc3nncn3n2)c2c1C(c1ccc(O)cc1)CC(=O)N2 (stereo not given),-37,100,nt,nt

# Later entries:
SMILES,HCMV UL50-53 inh,GIV Gai3 FP,Sa growth 42C,Sa growth 42C second temp
CNC(=O)c1cccc2c1-c1ccccc1C2=O,-132,104,91,90
O=C(Cn1nc(Cc2cccnc2)c2ccccc2c1=O)Nc1cccnc1,1,102,96,92
CCOC(=O)c1[nH]c2ccccc2c1NC(=O)c1ccccc1F,-7,106,102,87
Cc1oc(-c2ccccc2)nc1Cn1cccc1C1=NC(c2ccccc2)CO1 (stereo not given),nt,102,99,82
CCCCNC(=O)Cc1csc(-c2ccccc2)n1,-2,106,109,97
COc1ccc(N2CCN(S(=O)(=O)/C=C/c3ccccc3)CC2)cc1,10,104,118,108
CC1Oc2cc(S(=O)(=O)N3CCN(C(=O)NC4CCCCC4)CC3)c(Cl)cc2NC1=O (stereo not given),-1,106,nt,nt
CC(=O)NC(C)(C)COc1ccc(Cl)cc1,4,nt,112,95
CCCCc1cc(=O)oc2cc(OC(C)=O)cc(OC(C)=O)c12,-24,99,59,21
C=CCn1c(C#N)c(N)sc1=N,-17,127,103,85
CCC(=O)Nc1sc2c(c1C#N)CC(C)(C)NC2(C)C,-17,106,95,73
Cc1ccc(-c2noc3c(NCCc4c(C)noc4C)nc(C)nc23)cc1,-26,106,nt,nt
CCOc1ccccc1C(=O)NC1(C(F)(F)F)NC(=O)N(CCc2ccc(OC)c(OC)c2)C1=O (stereo not given),-19,108,87,83
CC(C)C(CC(=O)O)NCc1ccccc1Cl (stereo not given),nt,110,84,92
Cc1cc(Cl)ccc1Nc1ncnc2onc(C)c12,nt,106,91,93
CCOC(=O)C1CCCN(C(=O)CCc2nc3ccccc3s2)C1 (stereo not given),-24,nt,78,85
COc1cc(Cl)c(C)cc1NC(=O)NCc1noc2ccc(C)cc12,nt,104,105,89
Cc1ccccc1C(=O)NC1(C(F)(F)F)C(=O)Nc2c1c(=O)[nH]c(=O)n2-c1ccc(F)cc1 (stereo not given),-1,108,118,100
COc1ccc(-c2cc(C(C)=O)c(C)n2CCC(=O)NCc2ccc(C)cc2)cc1,nt,105,85,90
N#Cc1ccc(COC(=O)COc2ccccc2)cc1,-4,nt,108,94
O=C1CCCC2=C1C(c1ccc(OCc3ccccc3)cc1)C1=C(CCCC1=O)O2,6,107,nt,nt
Cc1nccn1CC(=O)N/N=C/c1ccc(O)c(O)c1,-69,99,96,72
OCc1cc(C(O)CNCCCCCCOCCCCc2ccccc2)ccc1O (stereo not given),-30&-3&-54&-22&-15,103&102,92&83,78&83
Cn1c([N+](=O)[O-])cnc1COC(N)=O,-91&-60&-60,nt,78,76
Cc1ccc(Cl)cc1N1CCN(CCCNC(=O)Cn2ncc3c([nH]c4ccccc43)c2=O)CC1,nt,102,85,87
COc1ccccc1NC(=O)c1cc(=O)c2ccc(C)c(C)c2o1,-19,102,94,89
CCc1ccccc1NC(=O)Nc1nnc(N(C)Cc2ccccc2)s1,-2,97,91,87
Cc1nc2c(-c3ccc(F)cc3)c(C)nn2c(C)c1CCC(=O)N1CCN(c2ccc(F)cc2)CC1,-17,104,111,92
CCCn1c(=O)c2sccc2n2c(CCC(=O)NC3CCC(C)CC3)nnc12 (stereo not given),-13,96,nt,nt
COC(=O)C(C)N1C(=O)S/C(=C/c2cccn2C)C1=O (stereo not given),-39,109,116,102
CCOC(=O)c1c(C)[nH]c(C(=O)N2CCCC(C(=O)NCCc3c[nH]c4ccc(Cl)cc34)C2)c1C (stereo not given),2,97,nt,nt
Cc1nn(-c2ccccc2)c(C)c1CCc1nn2c(CSc3ccccc3)nnc2s1,-16,108,nt,nt
COc1ccccc1NC(=O)N1CC=C(c2c[nH]c3ccccc23)CC1,-27,162,99,82
c1ccc(CCCn2cnc3ccccc32)cc1,-16,100,73,65
COc1ccc(-n2c(SC3CCOC3=O)nc3ccccc32)cc1 (stereo not given),-9,nt,110,85
Cc1cc(NCC(=O)Nc2ccc(N3CCOCC3)cc2)ccc1Br,0,nt,81,98
O=c1[nH]ncc(NCC2CCCO2)c1Cl (stereo not given),-14,nt,110,97
CS(=O)(=O)c1ccc(C#N)cc1,51,99,116,96
CCOC(=O)C1=C(CNCc2ccc(Cl)cc2)NC(=O)NC1c1ccccc1 (stereo not given),-12,114,87,104
Cc1ccc2c(c1)c(=O)c(C(=O)c1ccncc1)cn2CC(=O)Nc1ccc(C(C)C)cc1,nt,109,102,88

# Part of the list above in order of length of the SMILES, low to high:
SMILES,HCMV UL50-53 inh,GIV Gai3 FP,Sa growth 42C,Sa growth 42C second temp
CS(=O)(=O)c1ccc(C#N)cc1,51,99,116,96
COc1ccc(-n2c(SC3CCOC3=O)nc3ccccc32)cc1 (stereo not given),-9,nt,110,85
COc1ccccc1NC(=O)N1CC=C(c2c[nH]c3ccccc23)CC1,-27,162,99,82
Cc1nn(-c2ccccc2)c(C)c1CCc1nn2c(CSc3ccccc3)nnc2s1,-16,108,nt,nt
O=C1CCCC2=C1C(c1ccc(OCc3ccccc3)cc1)C1=C(CCCC1=O)O2,6,107,nt,nt
Cc1ccc(Cl)cc1N1CCN(CCCNC(=O)Cn2ncc3c([nH]c4ccccc43)c2=O)CC1,nt,102,85,87

# (further entries)
SMILES,HCMV UL50-53 inh,GIV Gai3 FP,Sa growth 42C,Sa growth 42C second temp
N#Cc1c(N2CCCC2)nc(-c2ccccc2)c2c1CCCC2,-11,98,96,85
O=C(/C=C/c1cccs1)N(CC1CCCO1)C1CCS(=O)(=O)C1 (stereo not given),-56,nt,98,98
O=S(=O)(c1ccc(Br)cc1)N1CCN=C1N1CCCC1,9,107,nt,nt
CC(C)(C)c1ccc(/C=C/C(=O)Nc2ccc3c(c2)OCCO3)cc1,-3&-3,97,nt,nt
FC(F)(F)c1cccc(-c2ccc(CNCC3CCNCC3)o2)c1,-13,104,nt,nt
COc1ccc(NC(=O)c2ccc(-c3ccc(-c4noc(C)n4)cc3C)cc2)cc1N1CCN(C)CC1,-5&0,107,nt,nt
O=C(CC1SC(=NCc2ccccc2)NC1=O)NC1CC1 (stereo not given),-11,nt,79,93
CC(C)Cn1cc(NC(=O)NCc2ccccc2)c2ccccc2c1=O,nt,97,89,93
O=C(COc1ccccc1)Nc1cccc(-c2nc3ncccc3o2)c1,-2,98,86,84
COCc1[nH]c(=S)[nH]c(=O)c1Cc1c(F)cccc1Cl,2,99,99,99
Nc1ccc(Cl)cc1-c1ncon1,-4,105,111,90
Cc1ccc(C(=O)n2c(=O)oc3ccc(C(C)(C)C)cc32)cc1,-14,105,nt,nt
COC(=O)c1ccc(CSc2nc(-c3ccc(OC)cc3)nc3c2c(=O)n(C)c(=O)n3C)o1,0,102,79,96
O=C(CSc1nccn1Cc1ccccc1)Nc1nc2ccccc2s1,nt,99,118,69
COc1ccc(Cl)cc1NC(=O)CN1C(=O)CC(c2ccccc2)S(=O)(=O)c2ccccc21 (stereo not given),nt,97,94,80
O=S(=O)(NCCn1c(-c2ccncc2)nc2cccnc21)c1ccc(C2CCCCC2)cc1,-31,104,nt,nt
N#CCCn1c(-c2cncs2)nc2ccccc21,-21,nt,86,88
CSCC(CSC)OC(=O)Nc1ccc(Cl)cc1,-21,107,89,88
Cc1cc(=O)oc2cc(OCC(=O)NCC3CCCO3)ccc12 (stereo not given),-16,102,89,94
Cc1[nH]nc2c1C1(C(=O)N(C(=O)c3ccccc3)c3ccccc31)C(C#N)=C(N)O2 (stereo not given),-32,106,nt,nt
